High-throughput results deposited in PubChem BioAssay by National Center for Advancing Translational Sciences (NCATS).
gsp agonist = activates gsp, the McCune-Albright syndrome mutation | AID 624287 | gsp mutant cells, cAMP HTRF, 30 min; control for the full effect not named in the record | hit rate 0.13% among 340,000 | Potency, µM (series often up to 76.9 µM), inactives show at the top dose activation (cAMP increase), usual class: activators; active = well fitted activation curve with a large enough effect; inconclusive = small, poorly fitted or top-dose-only effect, or another doubt; inactive = no such curve, though single readings can be large or run the other way; cell line not stated here;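 further: phosphodiesterase inhibitor Ro 20-1724 added with compounds to block cAMP breakdown; potency means the concentration at half of the fitted maximal effect; nearly all actives have a fitted effect of over 60% in size; about a fifth of the inactives were tested at one dose only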
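Cells stably selected in G418 were plated at 2000/well, grown 16-24 hr, then given compounds in DMSO with the PDE inhibitor […] (300 uM solution added) for 30 min at 37C; cAMP was read by HTRF.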
Six1-Eya2 blk = blocks human Six1 binding to Eya2; AlphaScreen GST-Six1/His-Eya2 binding, biochemical; stronger effect = lower value; control for the full effect not named in the record; activity change, % (concentration not given with the values); hit rate 0.56% among 360,000; AID 651725; in the data active = activity change below about -65%; inconclusive = about -30% to -65%; inactive = above about -30%; further: on the % scale 0 is the no-effect control and ±100 the full control effect
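AlphaScreen with GST-Six1 and His-Eya2 (5X mix: 250 nM and 500 nM), glutathione donor and nickel acceptor beads; buffer 50 mM Tris pH 8.0, 300 mM NaCl, 1 mM TCEP; 1 h at 37 C in the dark.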
CtBP-E1A inh = inhibitors of CtBP/E1A interaction; activity change, % (concentration not given with the values); hit rate 0.49% among 340,000; AlphaScreen GST-E1A/His-CtBP binding, 1536-well; stronger effect = lower value; control for the full effect not named in the record; in the data active means activity change below about -65%; inconclusive means about -30% to -65%; inactive means above about -30%; further: on the % scale 0 is the no-effect control and ±100 the full control effect
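Protein mix (5X: 125 nM each GST-E1A, His-CtBP) was incubated with pinned compound 2 h at 37 deg C in dark, in 50 mM Tris pH 8.0 buffer with 300 mM NaCl. Glutathione donor and nickel acceptor beads followed; AlphaScreen signal read after 1 h.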
gsp antag = antagonists of gsp mutant (McCune-Albright syndrome); gsp-mutant cells, cAMP HTRF, 30 min; control for the full effect not named in the record; Potency, µM (top dose mostly 76.9 µM), without a hit: top-dose activity change, negative = inhibition, hits mostly inhibitors; hit rate 0.4% among 340,000; AID 624288; active = falling curve of any shape with a large fitted effect; inconclusive = falling curve, mostly with a smaller effect; inactive = flat or rising curve; cell line not stated here;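 further: intracellular cAMP measured with PDE inhibitor Ro 20-1724 present during compound exposure; potency means the concentration at half of the fitted maximal effect; on the % scale 0 is the no-effect control and ±100 the full control effect; nearly all actives have a fitted effect of over 65% in size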
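Cells, 2000/well, grown 16–24 h in DMEM 10% FBS with 0.5 mg/ml G418, then compounds plus […] (300 uM addition stock), 30 min at 37C. cAMP read by HTRF (cAMP-d2 and anti-cAMP antibody-K in lysis buffer) after 30 min RT.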
D2 ag = activates the human D2 dopamine receptor | P14416 | DiscoveRx PathHunter D2 beta-arrestin, luminescence, 90 min; 100% = 57 uM dopamine signal | activation, % (test concentration not listed) | hit rate 0.084% among 360,000 | AID 624465; in the data active = activation above about 40%; inconclusive = about 15% to 40%; inactive = below about 15%; further: compound concentration not given in the record; the text of the record calls up to 30% inactive
Target sequence (P14416 whole entry, looked up): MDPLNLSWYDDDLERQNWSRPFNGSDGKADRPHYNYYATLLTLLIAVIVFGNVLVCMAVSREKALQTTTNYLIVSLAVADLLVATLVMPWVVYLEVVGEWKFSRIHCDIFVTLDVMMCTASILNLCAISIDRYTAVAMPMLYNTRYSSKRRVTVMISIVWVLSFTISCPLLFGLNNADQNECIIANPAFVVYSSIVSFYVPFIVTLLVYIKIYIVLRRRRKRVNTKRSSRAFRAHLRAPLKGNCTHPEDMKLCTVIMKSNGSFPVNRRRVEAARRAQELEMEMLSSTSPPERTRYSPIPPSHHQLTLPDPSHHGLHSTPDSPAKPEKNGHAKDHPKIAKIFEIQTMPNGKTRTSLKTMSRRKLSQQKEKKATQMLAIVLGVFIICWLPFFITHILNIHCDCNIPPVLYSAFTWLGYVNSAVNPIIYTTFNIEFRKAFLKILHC
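Agonist mode: compounds alone added to overnight-plated D2 PathHunter cells for 90 min at 37 C, with 57 uM final dopamine (EC100) defining full response. Beta-arrestin recruitment detected by chemiluminescent reagent, read after 1 h at ambient temperature.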
D2 potentiator = potentiates the human D2 dopamine receptor allosterically | hit rate 0.23% among 360,000 | potentiation, % (concentration not given with the values) | DiscoveRx D2 beta-arrestin cells, luminescence, 90 min; 100% = 57 uM dopamine signal | AID 624464; active = potentiation of 50% or more; inconclusive = 30% to 50%; inactive = 30% or less;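 further: compound concentration not given in the record; tested on top of an EC20 dose of dopamine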
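PathHunter beta-arrestin assay in DiscoveRx D2 cells. Compounds were added with an EC20 of dopamine (50 nM final) for 90 min at 37 deg C. Luminescence was read 1 h after detection reagent, with 57 uM dopamine as the EC100 control.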
* hit, by the source's call; ? = inconclusive; . = no result given; [ ] = remark or other dose.

SMILES | gsp agonist | Six1-Eya2 blk | CtBP-E1A inh | gsp antag | D2 ag | D2 potentiator
CCC(C)c1ccccc1NC(=O)COC(=O)CCc1cc(OC)c(OC)c(OC)c1 (stereo not drawn) | -10% | 1 | 6 | 3% | 0.9 | -12
O=C(CSc1ccc2ccccc2c1)Nc1ccc(S(=O)(=O)Nc2nccs2)cc1 | 3% | -29 | ? | -12% | 0.0 | -10
O=C(O)CCN1C(=O)C(=C2CCCCCC2)SC1=S | 15% | 13 | 3 | -1% | 0.0 | 9
COc1ccc(-c2nnn(CCc3nn[nH]n3)n2)cc1 | 16% | 7 | 6 | 5% | -2.4 | -1
CCc1c(C)sc2nc(SCC(=O)Nc3cc(C)on3)n(CCOC)c(=O)c12 | 1% | -5 | -2 | -14% | -2.0 | -3
COc1ccc(C(=O)NC(=S)Nc2ccc(S(=O)(=O)Nc3cc(C)on3)cc2)cc1OC | -8%[15.4 µM] | 6 | 0 | -17% | -1.6 | -2
CC(C)c1cc(C(=O)OCC(=O)NC(=O)NCc2ccco2)c(O)c(C(C)C)c1 | 4%[15.4 µM] | 1 | 15 | 5% | -2.7 | -12
Cc1ccc(S(=O)(=O)CCC(=O)OCC(=O)Nc2ncc(Cl)cc2Cl)cc1 | 20% | -1 | 0 | -1% | -1.9 | -19
O=C(C1CCCCC1)N1CCCC(c2nc(-c3ccc(F)cc3)no2)C1 (stereo not drawn) | 12% | 2 | -3 | ? | 2.8 | 13
COc1ccccc1C/C(N)=N/OC(=O)COc1ccc(C)cc1C | -18% | 51 | 76 | -20% | -1.7 | -8
COc1cc(N2C(=O)C=CC2=O)ccc1N1C(=O)C=CC1=O | 0% | -5 | 24 | 50µM* | -6.8 | -36
CC(OC(=O)Cc1c[nH]c2ccccc12)C(=O)N(C)c1ccccc1 (stereo not drawn) | ? | -1 | 0 | 6% | -1.4 | 3
O=C(CN1C(=O)/C(=C2\SC(=S)N(C3CCS(=O)(=O)C3)C2=O)c2ccccc21)Nc1ccc(F)cc1 (stereo not drawn) | 14%[15.4 µM] | -1 | 5 | 11% | -4.4 | 4
COc1ccccc1/C=N/N1C(=O)C2C3C=CC(CC3)C2C1=O (stereo not drawn) | -4%[15.4 µM] | 2 | 0 | -2% | -1.4 | 1
Cc1cc(C)cc(OCC(=O)N(Cc2cccs2)C2CCS(=O)(=O)C2)c1 (stereo not drawn) | -6% | 5 | 2 | -2% | -4.5 | -14
Cc1cc(O)c(C2(O)C(=O)Nc3cc(Br)ccc32)cc1C (stereo not drawn) | -39%[15.4 µM] | -22 | -29 | -12% | -2.8 | -5
Cc1nc2oc3ccc(F)cc3c(=O)c2cc1C(=O)NC(C)(C)C | 2%[15.4 µM] | 2 | 22 | -9% | 2.4 | -5
Cc1ccc(OCC(=O)N(Cc2ccccc2)c2c(N)n(Cc3ccccc3)c(=O)[nH]c2=O)c(C)c1 | 18%[15.4 µM] | 7 | 6 | -17% | -3.6 | -36
O=C(CSc1nc2ccc([N+](=O)[O-])cc2[nH]1)NC1CCCCCC1 | 12%[15.4 µM] | -7 | -10 | 40µM* | -5.3 | -6
CCC(=O)N(Cc1ccco1)c1nc(-c2cc(OC)ccc2OC)cs1 | -23% | -1 | 4 | 11% | -0.8 | -3

A different layout for some results above:
Molecule,gsp agonist,Six1-Eya2 blk,CtBP-E1A inh,gsp antag,D2 ag,D2 potentiator
Cc1cc(C)cc(OCC(=O)N(Cc2cccs2)C2CCS(=O)(=O)C2)c1 (stereo not drawn),-6%,5,2,-2%,-4.5,-14
Cc1cc(O)c(C2(O)C(=O)Nc3cc(Br)ccc32)cc1C (stereo not drawn),-39%[15.4 µM],-22,-29,-12%,-2.8,-5
Cc1nc2oc3ccc(F)cc3c(=O)c2cc1C(=O)NC(C)(C)C,2%[15.4 µM],2,22,-9%,2.4,-5
Cc1ccc(OCC(=O)N(Cc2ccccc2)c2c(N)n(Cc3ccccc3)c(=O)[nH]c2=O)c(C)c1,18%[15.4 µM],7,6,-17%,-3.6,-36
O=C(CSc1nc2ccc([N+](=O)[O-])cc2[nH]1)NC1CCCCCC1,12%[15.4 µM],-7,-10,40µM*,-5.3,-6

The results go on.
SMILES | gsp agonist | Six1-Eya2 blk | CtBP-E1A inh | gsp antag | D2 ag | D2 potentiator
CC(=O)Nc1ccc(SCc2c(C)noc2C)cc1 | -10% | 0 | -12 | 1% | 6.4 | -8
CCNc1nc(NCC)nc(N(C)N)n1 | -25% | ? | ? | 4% | -2.5 | -29
CN(C)CCCN(C(=O)c1ccco1)c1nc2ccc(Br)cc2s1 | 20% | -5 | -4 | 16% | -1.7 | -24
Cc1ccccc1C(=O)NC[C@@H]1CCCN2CCCC[C@H]12 | 12%[15.4 µM] | 0 | 17 | -5% | -1.8 | -15
O=C1CN(C(=O)COC(=O)c2ccccc2NC(=O)c2ccco2)c2ccccc2N1 | -14% | -11 | -16 | -12% | -2.3 | 0
O=C(c1ccc(-n2cccn2)cc1)N1CCN(c2ncccc2C(F)(F)F)CC1 | -6%[15.4 µM] | 5 | 8 | -7% | 1.6 | -19
COC(=O)c1ccccc1N1C(=O)C2C(C1=O)[C@H]1C=C[C@@H]2C1 (stereo partly drawn) | 11% | 6 | 9 | 21% | 0.8 | -4
Cc1cc(=O)oc2cc(NS(=O)(=O)c3ccccc3)ccc12 | 6%[15.4 µM] | 4 | -5 | -5% | 1.3 | 0
Cn1c(=O)c2c(nc(NCc3ccco3)n2C/C=C/c2ccccc2)n(C)c1=O | 21% | -8 | -3 | 3% | 12 | 64*
CCNC(=O)COC(=O)/C=C/c1ccccc1[N+](=O)[O-] | -3% | -4 | 3 | -30% | -3.9 | -20
O=C(CNS(=O)(=O)c1ccccc1)N1CCN(C(=O)c2ccco2)CC1 | 0% | -8 | -1 | 6% | -0.7 | 0
Cc1ccc(S(=O)(=O)NCC(=O)N2CCN(c3ccccc3F)CC2)cc1 | 3%[15.4 µM] | -4 | -19 | 2% | -4.9 | -5
Cc1cccc(C(=O)OCC(=O)c2c(N)n(CC(C)C)c(=O)n(C)c2=O)c1O | 15%[15.4 µM] | -5 | 7 | ? | -0.7 | -6
O=C(Nc1ccc2c(c1)OCCO2)C1CCN(c2nnnn2-c2ccccc2)CC1 | 7% | -3 | -19 | -17% | 4.3 | 8
Nc1c(C(=O)O)cnn1-c1ccccc1 | 11%[15.4 µM] | 5 | -1 | -4% | -5.3 | -6
Cc1ccccc1NC(=S)N1CCCN(Cc2ccc(F)cc2)C1 | -48%[inhibitor] | -3 | . | -10% | -3.2 | -22
Cc1ccccc1OCC(=O)N/N=C/c1ccc([N+](=O)[O-])o1 | -17% | -2 | . | -5% | 9.9 | -6
CN(C)c1ccc(NC(=O)/C=C/c2ccccc2Cl)cc1 | -4%[15.4 µM] | -25 | -22 | 2% | -4.5 | -27
CCOC(=O)c1c(C)[nH]c(C(=O)N2CCCC(C(=O)c3cccc(OC)c3)C2)c1C (stereo not drawn) | 45% | -3 | -7 | -14% | -7.1 | 1
CCSc1nnc2c(n1)OC(C)(C)Nc1ccccc1-2 | -28% | 12 | 46 | -14% | -1.5 | -15
O=C(Nc1ccc(N2CCN(C(=O)c3ccccc3)CC2)cc1)c1cc([N+](=O)[O-])ccc1N1CCOCC1 | -75%[inhibitor] | -15 | 1 | -8% | 0.5 | -3
COc1ccc2[nH]c(C(=O)N/N=C/c3ccccc3OC)cc2c1 | -1% | -10 | . | -18% | 15 | -10
CCOC(=O)C(=O)Nc1ncc(Cl)s1 | 21% | 2 | -1 | 6% | 1.7 | -5
O=C(c1ccco1)N1CCCN(Cc2nc(-c3ccc4c(c3)OCO4)no2)CC1 | 12%[15.4 µM] | -2 | 0 | 0% | -3.0 | -4
CCOC(=O)CCCNC(=O)c1cncc(Br)c1 | 23% | 4 | -1 | 9% | -0.8 | 1
Cc1ccc(Nc2nc(N)nc(CN3CCN(Cc4ccc5c(c4)OCO5)CC3)n2)cc1 | -23% | -9 | 11 | 9% | -1.5 | -11
Cc1nc(NC(=O)CSc2ccc(-c3nc4ccccc4[nH]3)cn2)sc1C | 14%[15.4 µM] | 1 | 9 | -6% | -2.1 | -4
CCOC(=O)Cc1csc(SCc2cc(=O)oc3cc(O)ccc23)n1 | 0% | 3 | 5 | -18% | -1.4 | 5
CC(=O)N1CC(=O)N=C1SCC(=O)Nc1nc(C)c(-c2ccccc2)s1 | -11%[15.4 µM] | -17 | -12 | ? | -8.6 | -13
C/C(=N\NC(=O)c1cccc(F)c1)c1ccc(NC(=O)Cc2ccccc2)cc1 | 0% | -1 | 2 | 0% | 0.2 | -12
COc1ccc(C(O)c2nc(-c3cnn(C)c3)cs2)cc1 (stereo not drawn) | . | 3 | 4 | . | 4.5 | -5
O=C(CSCCc1ccccn1)Nc1cccnc1Cl | ? | 8 | 16 | 5% | -0.9 | 0
CCN(CC)c1cc2c(c3c1ccn3C)C1CCC2O1 (stereo not drawn) | . | -3 | -20 | . | -4.2 | -12
N#CCc1cnc2ccccc2n1 | 14%[15.4 µM] | -14 | -11 | -1% | 6.7 | 7
Cc1nnc(NC(=O)c2ccc(C)c(S(=O)(=O)N3CCOCC3)c2)s1 | -43%[inhibitor] | -1 | 7 | -1% | 1.2 | -21
O=C1CCc2cc(S(=O)(=O)N3CCC(C(=O)NC4CCCC4)CC3)ccc2N1 | -45%[inhibitor] | -6 | 5 | -2% | -1.0 | -4
Cc1ccc(C)c(OCCCCn2ccnc2)c1 | -14% | -5 | 1 | 8% | 0.9 | -1
CCCCC(=O)N/N=C(\C)c1cccc(NC(=O)C2CC2)c1 | 8% | 7 | -2 | -5% | -1.9 | 0
CCOC(=O)c1c(-c2ccccc2)csc1NC(=O)CSc1nncs1 | 10% | 13 | 22 | ? | -1.1 | -6
O=C(NN1C(=O)C2C3C=CC(C3)[C@H]2C1=O)c1cccnc1 (stereo partly drawn) | -7% | -5 | -13 | 7% | -1.3 | -22
NC(CC(=O)O)c1ccc(Br)cc1 (stereo not drawn) | 4% | 7 | -4 | 3% | 0.0 | -2
O=C(N/N=C/c1c[nH]c2ccccc12)c1cc2ccccc2o1 | -6% | -3 | . | -15% | -3.7 | -24
COc1ccc(-c2ccc3[nH]c4c(c3c2)CCN2C[C@H]3[C@H](C)ON(C)[C@H]3C[C@@H]42)cc1 | ? | ? | ? | . | -8.1 | -3
N#CCCn1nc2c(c1N)CCC2 | 11% | 4 | 8 | 1% | -0.6 | -12
CCc1cccc(N(C)C(N)=Nc2cccc3ccccc23)c1 | . | -3 | 5 | -6% | -5.7 | -5
CCCC(=O)N1c2ccccc2NC2=C(C(=O)CCC2)C1c1ccc(F)cc1 (stereo not drawn) | -14% | 2 | 4 | 4% | -3.0 | -8
CCS(=O)(=O)N1Cc2ccccc2CC1C(=O)Nc1cccc(C)c1 (stereo not drawn) | -3% | 7 | . | 3% | 5.8 | -35
CC(C)Nc1ncnc2c1ncn2[C@H]1CN(Cc2ccco2)C[C@@H](CO)O1 | . | 2 | 8 | . | -4.5 | 1
